# From PubChem
# Mtb growth: Mycobacterium tuberculosis H37Rv growth inhibition, cell based, confirmatory dose response (AID 1949). most inactive calls were filed without a number and no value below 0 was filed. actives 1.6% (n = 100,000). inhibition, % at 10 µg/mL, or IC50 in µg/mL where a hit was titrated;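 active = confirmed in a dose series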;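 also: bacteria grown 7 days with compound before Alamar blue readout; 0% = untreated bacteria and 100% = reference antibiotic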
# Numbers without * were called inactive; i = inactive. Only part of the results is shown (hit frequency here may not be typical).
SMILES,Mtb growth
O=C1CC(c2ccccc2F)C2=C(CC(c3cccs3)CC2=O)N1 (stereo not drawn),i
Cc1csc(-c2cc3ccc(OCc4c(F)cccc4Cl)cc3oc2=O)n1,i
COc1ccccc1OC(C)C(=O)Nc1nc2ccc(F)cc2s1 (stereo not drawn),i
CC(C)C(=O)Oc1ccc(C(=O)Nc2ccccc2)cc1,i
COc1ccccc1NC(=O)c1ccc(CN(c2ccccn2)S(=O)(=O)c2ccccc2)cc1,i
CCN1CCN(c2ccc(NC(=O)CC34CC5CC(CC(C5)C3)C4)cc2Cl)CC1,49µg/mL*
COC(=O)c1sc(NC(=O)c2cc3c(s2)CCCC3)c(C#N)c1C,i
COCc1cc(C)nc(SCC(=O)Nc2ccc(Cl)c(C(=O)OC)c2)c1C#N,5%
COc1ccccc1OCCCCOc1ccccc1,i
CCOc1ccc(NC(=O)c2ccc(N(C)S(=O)(=O)c3ccc(C)cc3)cc2)cc1,i
COc1c(Cl)cc(Cl)cc1C(=O)Nc1sc(C)c(C)c1C#N,i
COc1ccc(Cc2nnc(SCC(=O)Nc3ccc(C)c([N+](=O)[O-])c3)o2)cc1,i
COc1ccc2nc(NC(=O)c3ccc(Br)s3)sc2c1,i
CCCCOc1ccc(S(=O)(=O)NC(C)c2ccccc2)cc1 (stereo not drawn),i
COc1cc(Cl)c(C)cc1NC(=O)COc1ccc(C)cc1Br,i
O=C(NCc1cccc(Oc2ccccc2)c1)Nc1ccccc1,3%
COc1ccc(CC(=O)NCc2nnc(SCC(=O)NC(C)c3ccccc3)n2C)cc1 (stereo not drawn),i
CCSc1ccc(NC(=O)c2ccccc2SC)cc1,2%
COc1ccccc1C(=O)NNC(=O)CCC(=O)NCc1ccccc1,i
CC(C(=O)OCc1ccc(F)cc1)N1C(=O)C(=O)c2cc(Br)ccc21 (stereo not drawn),0%
Cn1cccc1C(=S)N1CCOCC1,i
COc1ccc(CNC(=O)Cn2nc(C(F)(F)F)c(Cl)c2C)cc1,i
N#Cc1c(NC(=O)CN2CCN(Cc3ccccc3)CC2)sc2c1CCCC2,i
NC(=S)CCN1C(=O)c2ccccc2C1=O,i
Cc1cc(=O)[nH]c(Nc2c(C)n(C)n(-c3ccccc3)c2=O)n1,i

# Among those listed so far, four contain four or more nitrogen atoms.
SMILES,Mtb growth
COc1ccc(Cc2nnc(SCC(=O)Nc3ccc(C)c([N+](=O)[O-])c3)o2)cc1,i
COc1ccc(CC(=O)NCc2nnc(SCC(=O)NC(C)c3ccccc3)n2C)cc1 (stereo not drawn),i
N#Cc1c(NC(=O)CN2CCN(Cc3ccccc3)CC2)sc2c1CCCC2,i
Cc1cc(=O)[nH]c(Nc2c(C)n(C)n(-c3ccccc3)c2=O)n1,i

# (continued)
SMILES,Mtb growth
C=CCn1c(SCC(=O)NC)nnc1C12CC3CC(CC(C3)C1)C2,i
Cc1ccc(S(=O)(=O)N(CCC#N)Cc2ccccc2)cc1,i
O=C(CCc1ccc(S(=O)(=O)NC2CCCCC2)cc1)Nc1cc(C(F)(F)F)ccc1Cl,i
O=C(CCc1ccccc1)n1nc(-c2cccnc2)nc1NCc1cccs1,i
Cc1ccc(SCc2ccc(C(=O)Nc3ccccc3C(=O)N3CCOCC3)cc2)cc1,i
O=c1c2ccccc2nc(-c2ccc([N+](=O)[O-])cc2)n1-c1cccc(Cl)c1,i
Cc1ccc(-c2nn(CC(=O)NCCN3CCOCC3)c(=O)c3ccccc23)cc1,i
NC(=O)Cn1cnc2scc(-c3ccc(Cl)cc3)c2c1=O,i
COc1ccc(CN2C(=O)c3oc4ccc(C)cc4c(=O)c3C2c2ccc(SC)cc2)cc1 (stereo not drawn),i
O=C(c1c(F)c(F)c(F)c(F)c1F)N1CCN(c2ccc(F)cc2)CC1,i
O=C(Nc1ccc(NC(=O)c2cc(Cl)ccc2Cl)cc1)c1cc(Cl)ccc1Cl,6%
COC(=O)c1ccc(NC(=O)COc2ccc(-c3ccc(C)cc3)cc2)cc1,i
CCn1ncc(Cc2cnn(CC)c2C)c1C,i
CCOC(=O)C1=C(C)NC(=S)NC1c1cc(Br)ccc1OCC(=O)O (stereo not drawn),i
COc1ccc(C2CC(=O)C3=C(C2)Nc2ccccc2NC3c2ccsc2)cc1 (stereo not drawn),i
COCc1cc(=O)[nH]c(SCC(=O)Nc2cc(Cl)ccc2Cl)n1,i
CCCCc1ccc(OC(=O)CSc2ccccc2[N+](=O)[O-])cc1,i
CCOc1ccccc1NC(=S)Nc1cccc2ccccc12,i
COC(=O)C(N)Cc1c[nH]c2ccccc12 (stereo not drawn),i
N#Cc1cc2c(=O)n3ccccc3nc2n(CCc2ccccc2)c1=N,i
CC(=O)Nc1ccc(S(=O)(=O)Nc2ccc(CC#N)cc2)cc1,i
CCc1c(C)sc(NC(=O)c2ccncc2)c1C(=O)NC1CCCCC1,i
COC(=O)c1ccccc1NC(=O)CSc1nc2c(cc1C#N)CCCCC2,i
Cc1ccc(NC(=S)NCCC(c2ccccc2)c2ccccc2)cc1,i
CC1(CNC(=O)COc2ccccc2)C2CC3CC(C2)CC1C3 (stereo not drawn),1%
SMILES,Mtb growth
CC(=O)c1cccc(NC(=S)Nc2c(C)nn(Cc3c(F)c(F)c(F)c(F)c3F)c2C)c1,i
COC(=O)c1ccc(CSc2ccc(Cl)cc2)cc1,i
Cc1cccc(OCC(=O)N2CCN(C(=O)C(c3ccccc3)c3ccccc3)CC2)c1,i
CCS(=O)(=O)N1CCC(C(=O)Nc2cc(Cl)ccc2O)CC1,i
O=C(c1ccc(-c2ccccc2)cc1)N1CCC(C(=O)N2CCCC2)CC1,i
CCOC(=O)c1cnn2c(C(F)(F)F)cc(-c3cn(C)nc3C)nc12,i
O=C(CSc1nnc(-c2cccnc2)n1-c1ccccc1)NC(c1ccccc1)c1ccccc1,i
O=C(NCc1ccc(Cl)cc1Cl)C(=O)N1CCCCC1,1%
C=CCSc1nnc2c3c4c(sc3nc(C)n12)CCCC4,i
CN(CC(=O)Nc1cc(C(F)(F)F)ccc1Cl)S(=O)(=O)c1ccccc1,i
Cc1ccc(NC(=O)c2nc3nc(C)cc(C(F)F)n3n2)c(C)c1,i
CCc1cccc(C)c1NC(=O)COc1ccc(Cl)cc1C,i
N#Cc1c(NC(=O)Cn2c(=O)oc3ccccc32)sc2c1CCCC2,i
CCCCC(CC)C(=O)NCc1ccc(F)cc1 (stereo not drawn),i
CC(=O)c1cccc(NC(=O)c2cc(-c3ccccc3)nc3ccccc23)c1,i
COc1cccc(OC)c1C(=O)NCCN1CCN(C(=O)c2c(OC)cccc2OC)CC1,i
CCOC(=O)c1ccc2c(=O)n(CC)c(=O)[nH]c2c1,i
O=c1c2ccccc2c(-c2ccccc2)nn1-c1cc(N2CCOCC2)ccc1[N+](=O)[O-],2%
O=C(Nc1ccc(C(F)(F)F)cc1)c1cnccn1,2%
CCCCC(=O)Nc1cccc(NC(=S)NC(=O)c2ccc(OCC)c([N+](=O)[O-])c2)c1,4%
OC(c1ccccc1)c1nc2ccccc2n1Cc1ccc(Cl)c(Cl)c1 (stereo not drawn),49%
Cc1nn(-c2ccccc2)c(OC(=O)COc2ccc(F)cc2)c1Sc1ccc([N+](=O)[O-])cc1,i
CC(C)(C)NC(=S)Nc1ccc(Nc2ccccc2)cc1,i
Cc1ccc(S(=O)(=O)NCCCNS(C)(=O)=O)cc1,i
CCCCNS(=O)(=O)c1ccc(NC(=O)CCCOc2ccccc2)cc1,i

# 5 records picked at random from those above:
SMILES,Mtb growth
O=C(CSc1nnc(-c2cccnc2)n1-c1ccccc1)NC(c1ccccc1)c1ccccc1,i
CC(=O)c1cccc(NC(=S)Nc2c(C)nn(Cc3c(F)c(F)c(F)c(F)c3F)c2C)c1,i
Cc1cc(=O)[nH]c(Nc2c(C)n(C)n(-c3ccccc3)c2=O)n1,i
COc1ccccc1OC(C)C(=O)Nc1nc2ccc(F)cc2s1 (stereo not drawn),i
CC1(CNC(=O)COc2ccccc2)C2CC3CC(C2)CC1C3 (stereo not drawn),1%

# Back to the main list, repeating the 3 entries before the break.
SMILES,Mtb growth
CC(C)(C)NC(=S)Nc1ccc(Nc2ccccc2)cc1,i
Cc1ccc(S(=O)(=O)NCCCNS(C)(=O)=O)cc1,i
CCCCNS(=O)(=O)c1ccc(NC(=O)CCCOc2ccccc2)cc1,i
COc1ccc(N(CC(=O)Nc2ccc(S(=O)(=O)Nc3cccc(C)c3)cc2)S(C)(=O)=O)cc1,44%
Cc1sc2ncnc(SCc3ccc(C(=O)O)cc3)c2c1C,i
O=C(NCc1nc2ccccc2n1Cc1ccc(Cl)cc1Cl)c1ccccc1,i
Nc1nnc(SCc2ccc(OC(F)(F)C(F)F)cc2)s1,i
CN(CC(=O)N1CCCCC1)S(=O)(=O)c1ccc(Cl)cc1,i
CCOC(=O)C1CCCN(CC(O)COc2ccccc2C(C)=O)C1 (stereo not drawn),i
CCc1cc(=O)oc2c(C)c(OCC(=O)Nc3ccc(S(=O)(=O)N(CC)CC)cc3)ccc12,5%
CCCOc1cccc(C(=O)Nc2ccccc2-c2nc3ccccc3s2)c1,i
COc1ccc(CN2C(=O)c3oc4ccc(F)cc4c(=O)c3C2c2cccc([N+](=O)[O-])c2)cc1 (stereo not drawn),i
CCCCSc1nc(C)[nH]c1[N+](=O)[O-],i
CCOC(=O)c1sc2ncnc(Nc3cccc(Cl)c3)c2c1C,i
CCOc1ccc(S(=O)(=O)Nc2ccc(S(=O)(=O)Nc3ccc(OC)cc3OC)cc2)cc1,i
COc1ccc([N+](=O)[O-])cc1NS(=O)(=O)c1ccc(Cl)cc1,i
Cc1cc(C)cc(N(C(C)C(=O)NCc2ccccn2)S(C)(=O)=O)c1 (stereo not drawn),1%
O=C(O)C1C2CCC(O2)C1C(=O)N1CCN(c2ccccc2Cl)CC1 (stereo not drawn),i
O=[N+]([O-])c1c(-c2ccccn2)c(-c2ccccn2)n2ccccc12,4%
COc1cccc2cc(-c3nnc(SCC(=O)NCc4ccccc4)n3C)oc12,i
COc1cc(C(=S)NC2CCCCC2)ccc1O,i
COc1cc(OC)c(NC(=O)c2cc(Cl)ccc2OC)cc1Cl,i
CC(C)CCn1c(N2CCCC2)nc2c1c(=O)[nH]c(=O)n2C,i
COc1ccc(N/C(N)=N/c2nc(CSc3nc4ccccc4s3)cc(=O)[nH]2)cc1,i
CCOC(=O)c1c(NC(=O)CSc2nc3ccc([N+](=O)[O-])cc3s2)sc2c1CCCC2,18%
COc1ccc([N+](=O)[O-])cc1NC(=O)c1cc(-c2ccc(OC)c(OC)c2)nc2ccccc12,i
C=CCc1ccccc1OCCCON1C(=O)CCC1=O,3%
Cc1ccc(NC(=O)C(C)N2CCOCC2)c(C(=O)c2ccccc2)c1 (stereo not drawn),1%
SMILES,Mtb growth
COc1cc(NC(=O)c2ccc(C)cc2C)ccc1NC(=O)c1ccccc1Cl,i
Cc1ccc(C)c(N(CC(=O)Nc2ccc(Br)cc2)S(C)(=O)=O)c1,30%
O=C(NC(=S)NCc1ccccc1)C1CCCC1,3%
Cc1cc(C(=O)Nc2nnc(C3CCCCC3)s2)cs1,i
CC(C)OCCCNC(=O)C(=O)NC1CC1,i
Cc1cccc(C(C)C)c1NC(=O)C(C)Oc1ccc(Cl)cc1Cl (stereo not drawn),i
CCCn1c2ccccc2c2nnc(SCC(N)=O)nc21,i
CCN1C(=O)c2ccc(S(=O)(=O)c3ccc(C(=O)O)cc3)cc2C1=O,i
COc1ccc(C(=O)Nc2sc3c(c2C(N)=O)CCCC3)cc1Cl,1%
C=CCn1c(CNC(=O)c2cccc(C)c2)n[nH]c1=S,i
Cc1ccc(C)c(NC(=O)CSc2cc(C)c3ccccc3n2)c1,1%
COc1cc(C(=O)N2CCC(C(=O)Nc3ccc4c(c3)OCO4)CC2)cc(OC)c1OC,i
COc1ccc(C(C)C)cc1S(=O)(=O)n1nnc2ccccc21,3%
C=CCSc1nc(N)c2c3c(sc2n1)COC(C(C)C)C3 (stereo not drawn),i
CS(=O)(=O)N(CC(=O)NC1CCCC1)c1ccc(Br)cc1,6%
Cc1ccc(F)cc1Nc1nnc(-c2cc3c(ccc4ccccc43)oc2=O)s1,i
OC(COCc1ccccc1)CN1CCN(Cc2ccc3c(c2)OCO3)CC1 (stereo not drawn),i
O=C1Nc2ccccc2C12Nc1ccccc1CO2 (stereo not drawn),i
COc1ccccc1-c1c(Cc2ccccc2)[nH]n2c(=O)c3c(nc12)CCCC3,i
Cc1ccsc1/C=C1\SC(=S)N(Cc2ccccc2)C1=O,i
COc1ccccc1C(=O)Nc1ccc(-c2nc3cc(Cl)cc(Cl)c3o2)cc1,i
COc1cc(NC(=O)c2cc(Br)ccc2OC)c(OC)cc1Cl,i
CCc1cccc(NC(=O)c2ccc(F)cc2)c1,i
COc1ccc(C(=O)N(C)Cc2ccccc2)cc1I,i
C=C(C)CC(NCCc1ccccc1)c1ccco1 (stereo not drawn),i
SMILES,Mtb growth
CCC(=O)c1ccc(OCC(O)CN2CCc3ccccc3C2)cc1 (stereo not drawn),8%
CCOc1ccccc1NC(=O)Cn1cnc2scc(-c3ccc(CC)cc3)c2c1=O,i
FC(F)(F)c1ccccc1NC(=S)Nc1ccc2c(c1)OCCO2,2%
Cc1ccc2c(c1)C(=O)C(=O)N2CCCOc1ccc(Br)cc1,26%
CCOC(=O)C1=CN(C)C=C(C(=O)OCC)C1c1ccc([N+](=O)[O-])cc1,i
CCOC(=O)C1=C(C)NC(=O)NC1c1ccccc1OCc1ccccc1Cl (stereo not drawn),i
COc1ccc(C(=O)Nc2cc3nn(-c4ccccc4)nc3cc2Cl)cc1[N+](=O)[O-],i
C=CCNC(=O)c1ccccc1NC(=O)c1cccc(OC)c1,i
COc1cccc(C(=O)Nc2cc(C(F)(F)F)ccc2N2CCOCC2)c1,i
CCc1cccc(CC)c1NC(=O)NC1CCCCC1,i

# Six structures already listed, arranged by SMILES length, lowest first:
SMILES,Mtb growth
CCCCSc1nc(C)[nH]c1[N+](=O)[O-],i
Cc1sc2ncnc(SCc3ccc(C(=O)O)cc3)c2c1C,i
CCOC(=O)C1CCCN(CC(O)COc2ccccc2C(C)=O)C1 (stereo not drawn),i
CCS(=O)(=O)N1CCC(C(=O)Nc2cc(Cl)ccc2O)CC1,i
CCc1cc(=O)oc2c(C)c(OCC(=O)Nc3ccc(S(=O)(=O)N(CC)CC)cc3)ccc12,5%
COc1ccc(CN2C(=O)c3oc4ccc(F)cc4c(=O)c3C2c2cccc([N+](=O)[O-])c2)cc1 (stereo not drawn),i
